# 2A StopGo = lowers the luciferase signal of an FMDV 2A StopGo reporter | human cells with a luciferase reporter of 2A StopGo recoding; control for the full effect not named in the record | Potency, µM (top dose mostly 57.9 µM), without a hit: at the highest dose signal change, negative = less light | 410,000 compounds, 1.2% hits | AID 1159524; active = well fitted falling curve with a large enough effect; inconclusive = small, poorly fitted or top-dose-only effect; inactive = no such curve, though single readings can be large or run the other way; tested in HEK293T cells; also: % is scaled to controls: 0 for no effect and ±100 for the full control effect; nearly all actives have a fitted effect of over 45% in size; luciferase light after 4 h
# SARS PLP yeast = blocks SARS-CoV papain-like protease in a yeast assay. S. cerevisiae expressing SARS-CoV PLpro, growth rescue; control for the full effect not named in the record. Potency, µM (doses to about 32.9 µM), for inactives: top-dose activity, positive = growth rescue. 330,000 compounds, 0.19% hits. AID 485353; also: 0% is about no effect; nearly all actives have a fitted effect of over 55% in size; growth read by luminescence after 48 h
# RE007 growth inh = less growth of the S. pombe RE007 Vpr strain; S. pombe RE007 Vpr strain, BacTiter-Glo ATP luminescence, 24 h; control for the full effect not named in the record; Potency, µM (titrated, usually from 92.2 µM), for the others: at the top dose activity change, negative = less growth; 360,000 compounds, 0.21% hits; AID 651644; active = well fitted falling curve with a large enough effect; inconclusive = small, poorly fitted or top-dose-only effect; inactive = no such curve, though single readings can be large or run the other way;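 also: % is scaled to controls: 0 for no effect and ±100 for the full control effect; nearly all actives have a fitted effect of over 50% in size; the assay follows cell death caused by Vpr and the record does not say whether a fall means rescue or toxicity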
#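 Fission yeast strain RE007, carrying one chromosomally integrated HIV-1 vpr copy, was seeded at OD 0.01 in PMG+AL medium with 23 nL pinned compound. After 24 h at 30 °C and 99% humidity, viability was read by BacTiter-Glo luminescence.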
# Cruzain noTriton = cruzain (T. cruzi) inhibition without detergent; P25779; purified cruzain, Z-FR-AMC fluorescence, no detergent; Potency, µM, for the others: max response, negative = inhibition, hits mostly inhibitors; 200,000 compounds, 2.3% hits; active = well fitted curve in the direction sought with a large enough effect; inconclusive = small, poorly fitted or top-dose-only effect, or another doubt; inactive = no such curve, though single readings can be large; an effect the other way counts as inactive or inconclusive;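 also: plate controls were enzyme without inhibitor for no effect and buffer without enzyme for full effect; nearly all actives have a fitted effect of over 40% in size; top concentration of the series not given in the record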
# Target sequence (P25779 123-467 limits assumed): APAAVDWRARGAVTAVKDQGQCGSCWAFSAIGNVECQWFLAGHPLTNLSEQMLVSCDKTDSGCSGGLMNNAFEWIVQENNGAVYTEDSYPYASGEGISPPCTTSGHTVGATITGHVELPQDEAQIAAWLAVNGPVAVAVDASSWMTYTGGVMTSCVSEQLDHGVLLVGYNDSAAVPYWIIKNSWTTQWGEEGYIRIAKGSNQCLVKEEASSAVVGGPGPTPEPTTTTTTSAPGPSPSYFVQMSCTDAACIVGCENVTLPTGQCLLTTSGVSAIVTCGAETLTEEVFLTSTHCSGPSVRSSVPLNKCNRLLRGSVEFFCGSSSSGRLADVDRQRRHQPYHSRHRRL
#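 Detergent-free condition (0.00005% Triton X-100) in acetate buffer pH 5.5 with DTT. 1.5 nM enzyme and compound were pre-mixed 15 min, then 2 uM Z-FR-AMC substrate added; reaction progress from fluorescence change between first and third reads (60 s).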
# NS1 inh = blocks influenza NS1 protein function; S. cerevisiae slowed by influenza A NS1, growth recovery by OD600; Potency, µM (titrated, usually from 46.1 µM), inactives show at the highest dose activity, positive = more growth; 270,000 compounds, 0.4% hits; AID 2326; also: actives are rising curves; nearly all actives have a fitted effect of over 50% in size
#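 S. cerevisiae expressing influenza A NS1, grown in glucose, washed, then diluted 1:100 into pH 6.0 -URA galactose medium with 23 nl compound. Growth recovery read as OD600; NS1-free strain serves as control.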
# MARV entry inh = blocks Marburg virus binding to or entry into cells | AID 540276 | Marburg virus pseudotyped entry inhibition, cell reporter; control for the full effect not named in the record; about a third of the inactives were read at about 46 µM | Potency, µM (doses to about 37.8 µM), for the others: top-dose activity change, negative = inhibition, actives largely listed as inhibitors | 300,000 compounds, 1.8% hits; active = well fitted inhibition curve with a large enough effect; inconclusive = small, poorly fitted or top-dose-only effect, or effect the other way; inactive = flat fitted curve, though single readings scatter; tested in HEK293 cells; about a fifth of its hits are not listed in these tables; also: % is scaled to controls: 0 for no effect and ±100 for the full control effect; luciferase read-out
# LASV entry inh = blocks Lassa virus binding to or entry into cells. Lassa virus pseudotype entry inhibition, cell reporter; control for the full effect not named in the record. Potency, µM (series often up to 37.9 µM), for the others: at the highest dose activity change, negative = inhibition, hits mostly inhibitors. 300,000 compounds, 1.2% hits. AID 540256; active means well fitted inhibition curve with a large enough effect; inconclusive means small, poorly fitted or top-dose-only effect, or effect the other way; inactive means flat fitted curve, though single readings scatter; tested in HEK293 cells; also: % is scaled to controls: 0 for no effect and ±100 for the full control effect; nearly all actives have a fitted effect of over 50% in size; luciferase read-out
# Cruzain inh Det = inhibitors of Trypanosoma cruzi cruzain with detergent; P25779; purified cruzain, Z-FR-AMC fluorescence, 0.01% Triton; Potency, µM, without a hit: max response, negative = inhibition, most hits filed as inhibitors; 200,000 compounds, 0.43% hits; AID 1478; active = well fitted curve in the direction sought with a large enough effect; inconclusive = small, poorly fitted or top-dose-only effect, or another doubt; inactive = no such curve, though single readings can be large; an effect the other way counts as inactive or inconclusive;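 also: plate controls were neutral wells for no effect and buffer without enzyme for full effect; nearly all actives have a fitted effect of over 40% in size; top concentration of the series not given in the record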
#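 Purified cruzain (1.5 nM final) was preincubated with compounds for 15 min at room temperature in 100 mM sodium acetate pH 5.5, 5 mM DTT, 0.01% Triton X-100. Reaction started with 2 uM Z-FR-AMC; AMC fluorescence change over 60 s gave activity.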
# An asterisk follows results filed as active; ? = inconclusive; · = no result given; & = joins results of further samples; [ ] = dose if it differs, or a comment. Unless noted, calls follow the shape of the dose curve; as a rule, active means well fitted rising curve with a large enough effect; inconclusive means small, poorly fitted or top-dose-only effect; inactive means no such curve, though single readings can be large or run the other way. Potency is read from the fitted curve at half-maximal effect.
SMILES,2A StopGo,SARS PLP yeast,RE007 growth inh,Cruzain noTriton,NS1 inh,MARV entry inh,LASV entry inh,Cruzain inh Det
Cc1cc(C)n2nc(SCc3cccc(F)c3)nc2n1,25%,-2%,1%,·,-6%,-14%,?,·
Cc1cc(CN2CCCC(C(=O)Nc3ccc(-c4nc5ccccc5[nH]4)cc3)C2)n[nH]1 (stereo not drawn),7%,5%,-2%,·,7%,?,-2%[46.1 µM],·
CCc1ccc(NC(=O)COc2ccc(F)cc2C(=O)c2cnn(-c3ccccc3)c2)cc1,10%,-3%,-4%,-5%,2%,?,-27%,-7.7%
CCOCCCNC(=O)CCSc1ccc(C)cc1,2%,9%,-9%,7%,5%,10%,11%,0.4%
O=C(O)Cc1ccc(NC(=O)c2cccs2)cc1,6%,2%,17%,-4%,-11%,0%,-10%,7.2%
CCOCCOC(=O)c1ccc(-n2cnc(C)n2)nc1,3%,-1%,-2%,·,2%,·,·,·
Nc1nnc(CCCCCCCCCCc2nnc(N)s2)s1,-12%,0%,-11%,·,6%,-28%[46.1 µM],?,·
O=C(Cn1ccc2cc(S(=O)(=O)N3CCCCC3)ccc21)NCc1ccccc1F,4%,?,0%,·,12%,?,?,·
Cc1ccc(SCC(=O)OCC(=O)NCCc2ccc(S(N)(=O)=O)cc2)c(C)c1,32%[activator],-9%,12%,·,·,3%[46.1 µM],-2%[46.1 µM],·
O=C(CCC1CCN(Cc2ccccc2Cl)CC1)NC1CC1,0%,6%,0%,·,-1%,·,·,·
COc1cc(-c2noc(-c3nnn(-c4ccc(Cl)cc4)c3C)n2)cc(OC)c1OC,-28%,·,·,-8%,·,·,24%[46.1 µM],2.2%
CCN(CC)Cc1c(O)ccc2c(=O)c(-c3ccccc3Cl)coc12,-10%,1%,-10%,·,24%,?,15%[46.1 µM],·
CCOC(=O)Cc1csc(NC(=O)c2cccc(N3C(=O)CCC3=O)c2)n1,·,6%,16%,-8%,-2%,0%,6%,-0.7%
CC1CCN(c2c(NCC3CCC(C(=O)Nc4ccccn4)CC3)c(=O)c2=O)CC1 (stereo not drawn),6%,-6%,6%,-6%,-12%,2%,2%,-2.0%
COc1ccc(NC(=O)C(NC(=O)c2ccccc2)C(C)C)cc1 (stereo not drawn),12%,-4%,16%,-6%,-6%,-9%,-6%,-1.3%
CCc1cc2c(SCC(=O)c3ccc(C)cc3)ncnc2s1,13%,-10%,8%,8%,-2%,21%,7%,-1.8%
O=C(/C=C/c1cccs1)c1cc(Cl)ccc1O,1%,-1%,-21%,·,-2%,·,·,·
CCOC(=O)N1CCN(C(=O)CN(c2cccc(C)c2)S(=O)(=O)c2ccc(C)cc2)CC1,-1%,-14%,1%,?,-48%,3%,-11%,0.4%
COc1cccc(-c2c(C(=O)N/N=C/c3ccoc3)nnn2-c2nonc2N)c1,-10%,1%,-11%,·,24%,?,?,·
Cc1ccccc1OCc1nnc(SCc2cc(=O)c3ccc(C)c(C)c3[nH]2)n1C,-35%,·,·,-8%,·,·,2%[46.1 µM],0.6%
C=CCSc1nc2ccccc2c2nc(-c3ccccc3)nn12,-3%,3%,18%,7%,6%,72%,-12%,4.1%
COc1ccc(/C=C2\SC(=S)N(CCC(=O)Nc3cccc(O)c3)C2=O)cc1,61%[activator],6%,-7%,·,20%,·,·,·
Cn1c(SCC(=O)n2c3c(c4ccccc42)CCCC3)nnc1-c1ccccc1,-4%,1%,44%[3.69 µM],1%,7%,2%,3%,-5.0%
O=C(CSc1ncn(-c2ccccc2)n1)Nc1ccc(Br)cn1,-17%,-17%,12%[3.69 µM],-6%,-100%,-2%,-17%,-8.2%
COc1ccccc1CNC(=O)COC(=O)c1nc(Cl)ccc1Cl,-6%,-2%,1%,·,·,-3%,8%[46.1 µM],·

# Record cards, as listed above. Values in the order: 2A StopGo	SARS PLP yeast	RE007 growth inh	Cruzain noTriton	NS1 inh	MARV entry inh	LASV entry inh	Cruzain inh Det
# `CCc1ccc(NC(=O)COc2ccc(F)cc2C(=O)c2cnn(-c3ccccc3)c2)cc1` reads 10%	-3%	-4%	-5%	2%	?	-27%	-7.7%
# `Cc1cc(C)n2nc(SCc3cccc(F)c3)nc2n1` reads 25%	-2%	1%	·	-6%	-14%	?	·

# Single values from the list:
# `O=C(CSc1ncn(-c2ccccc2)n1)Nc1ccc(Br)cn1` in LASV entry inh is entered as -17%
# `COc1cc(-c2noc(-c3nnn(-c4ccc(Cl)cc4)c3C)n2)cc(OC)c1OC` in Cruzain noTriton is entered as -8%

# Further records.
SMILES,2A StopGo,SARS PLP yeast,RE007 growth inh,Cruzain noTriton,NS1 inh,MARV entry inh,LASV entry inh,Cruzain inh Det
COc1ccc2[nH]c(C(=O)O)c(CCN3C(=O)c4cccc([N+](=O)[O-])c4C3=O)c2c1,-9%,-4%,-1%,·,11%,·,·,·
COc1ccc(C)c(S(=O)(=O)Nc2ccc(OCC(=O)O)cc2)c1,-1%,3%,6%,12%,11%,-1%,·,8.7%
CCOC(=O)N1CCN(CC(O)COC2CC(C)CC(C)(C)C2)CC1 (stereo not drawn),-21%,2%,-5%,-1%,-9%,-16%[46.1 µM],9%,7.1%
Cc1cc(C)nc(SCc2cn3cc(Cl)ccc3n2)n1,34%[activator],7%,-13%,-1%,1%,15%,?,-1.9%
CC(O)C(O)C(O)C(O)C1NCCS1 (stereo not drawn),-5%,8%,-3%,6%,-4%,?,0%,0.1%
Cc1cccn2cc(-c3ccc(F)cc3)nc12,-25%,-3%,?,-5%,-46%,?,?,-1.6%
CCNC(=O)NC(=O)CSc1nc2ccccc2n1CC(C)C,-21%,11%,11%,12%,-73%,-13%,1%,-2.7%
Cc1ccc(CNC(=O)c2cccc(N3CCCS3(=O)=O)c2)cc1,-18%,·,·,7%,·,·,-3%[46.1 µM],3.5%
CCN(CC)CCCN=Cc1c(O)n(-c2ccccc2C)c(=O)c2ccccc12,-14%,0%,4%,·,4%,·,·,·
O=[N+]([O-])c1ccc(N2CCN(c3ccc(Cl)nn3)CC2)c(Cl)c1,-6%,2%,?,?,3%,-23%,4%,-2.5%
O=C(CSc1nnc(Cn2c(=O)sc3ccccc32)n1-c1ccccc1)NCc1ccco1,-4%,16%,4%,-5%,-6%,·,·,-2.3%
Cc1ccc(CNC(=O)Cn2c(=O)c3sccc3n(Cc3cccc([N+](=O)[O-])c3)c2=O)cc1,·,14%,·,-24%,7%,-18%,-21%,0.9%
CCCCN(C(=O)NC(=O)Nc1cc(C)ccc1C)S(C)(=O)=O,·,19%,15%,2%,-5%,-23%,0%,-0.6%
CCOC(=O)c1c[nH]n(-c2ccc(C)cc2)c1=O,19%,-1%,2%,·,·,-1%[46.1 µM],3%[46.1 µM],·
COc1ccc2nc(SCC(=O)Nc3nccs3)[nH]c2c1,27%,-1%,9%,·,-2%,·,·,·
CC1OC(OCC2OC(Oc3c(-c4ccc(O)cc4)oc4cc(O)cc(O)c4c3=O)C(O)C(O)C2O)C(O)C(O)C1O (stereo not drawn),-21%,4%,10%,·,3%,·,·,·
Cc1ccc(C)c(NC(=O)CCc2ccc(C)o2)c1,-4%,0%,-15%,·,1%,·,·,·
CCn1c(SCC(=O)Nc2nc(C)c(C(=O)OC)s2)nnc1C(C)C,-10%,-2%,4%,2%,-7%,-2%[46.1 µM],-1%,1.5%
CCn1cc(S(=O)(=O)c2cccc(C)c2)c(=O)c2cc(F)c(N3CCN(C)CC3)cc21,7%,0%,-6%,·,5%,·,·,·
COC(=O)c1ccc(C2Nc3c(C)cc(C)cc3C3C=CCC32)cc1 (stereo not drawn),-17%,·,·,-3%,·,-16%[46.1 µM],-2%[46.1 µM],-6.1%
O=C(CSc1nc(=O)n2ccccc2n1)Nc1ccc2c(c1)OCCO2,-1%,0%,-10%,·,·,1%,1%,·
O=C(O)c1cccc(S(=O)(=O)Nc2ccc([N+](=O)[O-])cc2O)c1,-18%,0%,7%,·,2%,-1%,·,·
CCOc1ccc(CCN2C(=O)CCC2(C)C(=O)NC(C)CC)cc1OCC (stereo not drawn),-6%,6%,8%,6%,4%,1%,-10%[14.3 µM],0.8%
CC1CN(S(=O)(=O)c2cc(C(=O)N(CCc3ccccc3)Cc3ccccc3)ccc2Cl)CC(C)O1 (stereo not drawn),7%,1%,11%,·,·,?,?,·
Cc1ccc(C)c(NC(=O)Cn2cc(C(=O)c3ccncc3)c(=O)c3cc(F)ccc32)c1,-11%,·,·,-9%,·,·,?,-0.9%

# Other results.
SMILES,2A StopGo,SARS PLP yeast,RE007 growth inh,Cruzain noTriton,NS1 inh,MARV entry inh,LASV entry inh,Cruzain inh Det
CC(C)CC(=O)N1CCN(c2ccc([N+](=O)[O-])c(NCc3ccccc3)c2)CC1,?,·,-26%,·,·,?,-27%,·
NC(=S)N/N=C\c1ccccc1OCc1ccccc1,-18%,11µM*,-2%,1.3µM*,10%,?,-19%,3.2µM*
CC1CCCCC1NC(=O)c1cccc(S(=O)(=O)N2CCN(C)CC2)c1 (stereo not drawn),-8%,-1%,-15%,·,·,-2%,12%,·
CCOC(=O)CN1C(=O)c2ccccc2Sc2ncccc21,10%&-2%,0%,4%,-1%,-2%,-20%&-20%[46.1 µM],21%[46.1 µM],-1.6%
C[C@@]1([C@@H](NP(=O)(c2ccccc2)c2ccccc2)c2ccccc2)C[C@H]1CCO,-20%,12%,6%,?,-12%,?,-2%,-1.5%&-1.8%
O=C1NC[C@H](Cc2ccc(O)cc2)N(CC2CCCCC2)C1=O,4%,1%,-8%,·,1%,·,·,·
COc1ccc(-n2c(Cc3cccn3C)nnc2SCC(=O)Nc2cc(Cl)ccc2OC)cc1,21%,9%,-9%,?,-4%,?,?,-5.6%

# Source: PubChem BioAssay (National Center for Advancing Translational Sciences (NCATS))
